Assay outcomes from PubChem.
GIV Gai3 FP – inhibitors of GIV GBA-motif binding to rat Galpha-i3; percent of control (FP), % (no concentration beside the values); 0.42% of 210,000 active; AID 1224905; Galpha-i3/FITC-GIV peptide fluorescence polarization, 90 min; stronger effect = lower value; scaled: aluminum fluoride 0%, vehicle 100%;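 active = replicate mean at 85% of control or lower, very high polarization wells dropped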;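 note: wells of about 15 µL received 100 nL stock; the first replicate is given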
Target sequence (P08753 whole entry, looked up): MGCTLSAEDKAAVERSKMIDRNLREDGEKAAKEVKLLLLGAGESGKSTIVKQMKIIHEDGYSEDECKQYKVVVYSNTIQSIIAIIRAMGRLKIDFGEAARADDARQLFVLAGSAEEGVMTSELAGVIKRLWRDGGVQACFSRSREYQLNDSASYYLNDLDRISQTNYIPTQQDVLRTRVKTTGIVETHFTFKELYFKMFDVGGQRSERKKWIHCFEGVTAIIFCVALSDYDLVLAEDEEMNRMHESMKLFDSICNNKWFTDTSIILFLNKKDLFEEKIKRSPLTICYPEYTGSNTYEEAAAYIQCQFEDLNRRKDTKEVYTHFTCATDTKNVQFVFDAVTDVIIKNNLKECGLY
The depositor's hits bear a star.

SMILES	GIV Gai3 FP
CCCCCOc1ccc(NC(=O)C2OC3OC4(CCCCC4)OC3C3OC4(CCCCC4)OC23)cc1 (centres undefined)	110
CCc1ccc(-c2nc(CS(=O)(=O)c3ccc(Cl)cc3)no2)cc1	105
Cc1cccc(N2C(=O)C(=O)/C(=C(/O)c3ccccc3)C2c2ccccc2F)c1 (centres undefined)	103
O=C(Nc1ccccc1F)N1CCC(n2cnc3cc(F)ccc3c2=O)CC1	106
Cc1cccc(N(CC(O)CN(CC(C)C)CC(C)C)S(=O)(=O)c2ccccc2)c1 (centres undefined)	119
Cc1cc(NC(=O)CCc2nc(-c3ccc(N4CCCC4)cc3)no2)ccc1Br	100
Cc1cc(=O)oc2c1ccc1occ(Nc3ccc(Br)c(Cl)c3)c12	108
Cc1nc(CN2C(=O)COc3cc(S(=O)(=O)N4CCOCC4)c(Cl)cc32)no1	99
O=C1Nc2ccccc2C12OCC(CO)([N+](=O)[O-])CO2 (centres undefined)	110
Cc1ccc(C)c2sc(NC(=O)c3ccc(S(=O)(=O)N(C)CC4CCCO4)cc3)nc12 (centres undefined)	101
CCC(C)NC(=O)Cn1nc2n(CCC(=O)NC(C)C)c(=O)c3ccccc3n2c1=O (centres undefined)	98
O=C(CSc1nc(=O)n(Cc2ccncc2)c2c1CCC2)NC1CCCC1	102
O=C(Nc1ccc2c(c1)OCCO2)N1CCC(n2cnc3ccc(Cl)cc3c2=O)CC1	106
O=C(NC1CCCCC1)C1CCCN(c2ncnc3c2oc2ccccc23)C1 (centres undefined)	101
O=S(=O)(NCCc1n[nH]c(Cc2cccc(F)c2)n1)c1ccc(F)cc1F	104
COCCCNC(=O)c1cc(-c2ccc(OC)cc2)nc2n[nH]c(-c3ccc(OC)cc3)c12	100
CCOC(=O)C1C(=O)NC(SCC(=O)Nc2c(C)cc(C)cc2C)=C(C#N)C1c1ccccc1Cl (centres undefined)	114
COc1cccc(/C=C2\N=C(c3ccc(Br)cc3)OC2=O)c1	110
Cc1ccc(CN2CCCC2c2cc(C)on2)c(C)c1 (centres undefined)	104
O=C(Nc1ccc(C(=O)N2CCCC(C(=O)NC3CCCCC3)C2)cc1)c1ccc(Cl)cc1 (centres undefined)	108

Structural class: those above with an NH in an aromatic ring (two)
SMILES	GIV Gai3 FP
O=S(=O)(NCCc1n[nH]c(Cc2cccc(F)c2)n1)c1ccc(F)cc1F	104
COCCCNC(=O)c1cc(-c2ccc(OC)cc2)nc2n[nH]c(-c3ccc(OC)cc3)c12	100

The results go on:
SMILES	GIV Gai3 FP
CCOc1cccc(C2CC(=O)Nc3c2cnn3-c2ccc3nnc(C)n3n2)c1 (centres undefined)	98
COc1cc(/C=C2/SC(=O)N(CNc3ccccc3C)C2=O)cc(OC)c1OC	117
COC(=O)C(NC(C)=O)(Nc1ccccn1)C(F)(F)F (centres undefined)	108
CCCCN1C(=O)/C(=C/c2cn(-c3ccccc3)nc2-c2ccc(S(=O)(=O)N3CCOCC3)cc2)SC1=S	104
CCC(C)NC(=O)CSc1nc(N2CCc3ccccc3C2)nc2ccccc12 (centres undefined)	107
COc1ccc(NC(=O)CCc2c(C)n(C)c3cc(-c4ccccc4OC)nn3c2=O)cc1	107
O=C(Nc1ccc(-c2ccc3ccccc3n2)cc1)c1ccccc1F	101
CCOc1ccc(N2C(=O)C(OC)=C(C(=O)c3ccccc3)C2(Nc2cccc(C(F)(F)F)c2)C(=O)OC)cc1 (centres undefined)	110
CCS(=O)(=O)N1CCOc2ccc(COCc3ccccc3Cl)cc2C1	99
CCOC(=O)CC1(NC(=O)N2CCCC2c2c(C)noc2C)CCCCC1 (centres undefined)	102
CCc1cccc(-n2nnnc2N2CCN(C(=O)Nc3ccc(C)cc3C)CC2)c1	105
CCc1nc(CN2C(=O)COc3ccc(S(=O)(=O)N4CCN(C)CC4)cc32)no1	101
COc1ccccc1CNC(=O)c1sc2ncn(CC(=O)Nc3cccc(C(F)(F)F)c3)c(=O)c2c1C	97
Cc1cccc(C)c1Nc1c(-c2ccc(N(C)C)cc2)nc2cnc(Br)cn12	140
Brc1ccc(-c2nc(-c3ccccc3)c(-c3ccc(-c4ccccc4)cc3)[nH]2)cc1	111
Cc1cc(C2CCCN2C(=O)c2cnn3cc(Br)cnc23)on1 (centres undefined)	121
CCOC(=O)C1=c2s/c(=C/c3ccccc3OC)c(=O)n2C(N)=C(C(=O)OC)C1c1ccccc1OC (centres undefined)	113
COc1ccccc1NC(=O)CSc1nnc2c(n1)-c1cccc3cccc-2c13	120
CCCc1ccc(S(=O)(=O)N2CCCC(C)(C(=O)NCc3ccccc3C)C2)cc1 (centres undefined)	104
COc1ccc(S(=O)(=O)Nc2cc(C(=O)N3CCCCCC3)ccc2N2CC3CC(C2)c2cccc(=O)n2C3)cc1 (centres undefined)	104
Cn1cnc2c(-c3ccc(Cl)cc3)csc2c1=O	107
Cc1ccc(S(=O)(=O)N2CCCC2c2cc(C)no2)cc1 (centres undefined)	95
COc1ccc(C2C3=C(CC(C)(C)CC3=O)Nc3nc(SC)[nH]c(=O)c32)cc1 (centres undefined)	113
Cc1ccc(N2CC(c3nc(Cn4cnc(S(=O)(=O)N5CCCCC5)c4)no3)CC2=O)cc1C (centres undefined)	106
CN1CCN(c2ccc(CNC(=O)Cn3ccc4c(SCc5ccccc5)nccc43)cc2)CC1	101
O=S1(=O)C=C(Sc2nc3ccccc3o2)c2ccccc21	119
Cc1nc(-c2ccc(F)cc2)sc1-c1ccc(SCCN2CCOCC2)nn1	101
Cc1ccc2c(c1)C(=Nc1ccccc1)c1cc3ccccc3nc1-2	109
Cc1cccc(NC(=O)CCc2nc(CSc3nc4ccccc4o3)no2)c1C	106
Cc1ccc(NC(=O)CSCc2noc(-c3ccc(C)cc3)n2)cc1	104
COc1cc(C=C2C(=O)N(C)C(=O)N(C)C2=O)cc(Br)c1OCCOc1ccc(C)c(C)c1	105
CCOC(=O)c1c(NC(=O)C(C)Sc2nnc(CNC(=O)c3ccc([N+](=O)[O-])cc3)n2C)sc2c1CCC2 (centres undefined)	111
Cc1cc(NC(=O)CCc2nc(CSc3nc(-c4ccc(Cl)cc4)cs3)no2)no1	106
CCCCCOc1ccc(C=C2c3cc([N+](=O)[O-])cc([N+](=O)[O-])c3-c3c2cc([N+](=O)[O-])cc3[N+](=O)[O-])cc1	107
O=C1C2C3c4ccccc4C(c4ccccc43)C2C(=O)N1c1ccccc1 (centres undefined)	108
CC(=O)NC1=NC(=O)/C(=C\c2cn(C(C)=O)nc2-c2ccc(F)cc2)S1	108
CCn1c(=O)[nH]c2c(C(=O)N3CCCC(C)C3)snc2c1=O (centres undefined)	100
CC(C)(C)NC(=O)N1CCOc2ccc(COCc3ccccc3F)cc2C1	101
CCOc1ccc(C2C(N3C(=O)c4ccc([N+](=O)[O-])cc4C3=O)C(=O)N2c2ccc(OC)cc2)cc1 (centres undefined)	109
O=c1c2cccc3cccc(c32)c2nc3ccccc3n12	112

The closing 4 entries of the section before come first, to join the parts.
SMILES	GIV Gai3 FP
CCn1c(=O)[nH]c2c(C(=O)N3CCCC(C)C3)snc2c1=O (centres undefined)	100
CC(C)(C)NC(=O)N1CCOc2ccc(COCc3ccccc3F)cc2C1	101
CCOc1ccc(C2C(N3C(=O)c4ccc([N+](=O)[O-])cc4C3=O)C(=O)N2c2ccc(OC)cc2)cc1 (centres undefined)	109
O=c1c2cccc3cccc(c32)c2nc3ccccc3n12	112
CC(C)N1CC2=C(OC(N)=C(C#N)C2c2ccccc2F)/C(=C/c2ccccc2F)C1 (centres undefined)	124
COc1ccc(Cl)cc1NC(=O)c1c(NCc2cccnc2)sc2c1CCCCC2	107
COc1ccc(/C=C2\C=C(c3ccccc3)N(c3ccc(C)cc3Br)C2=O)cc1	114
COc1ccccc1C(=O)Nc1ccc2nc(SCC(=O)NCc3ccccc3)sc2c1	102
Cc1cccc(NC(=O)c2c(NC(=O)C(C)C)sc3c2CCC3)c1	118
Cc1ccc(C2(O)CN(c3cc(C)ccc3C)C3=[N+]2CCCC3)cc1 (centres undefined)	111
CCOC(=O)c1cnc2c(ccc3ccccc32)c1Nc1ccc(C)c(C)c1	107
O=C(Nc1ccc(N2CCOCC2)cc1)c1cccc(-c2cc(N3CCCC3)ncn2)c1	104
CCc1cc(Sc2nnc(NC(=O)Nc3cccc(Cl)c3)s2)n2ncnc2n1	101
CCc1nc(-c2csc(S(=O)(=O)N3CCC(C(=O)NC4CCCCC4)CC3)c2)no1	109
C=CC1Oc2ccc(Cl)cc2NC12C=C(C(C)(C)C)C(=O)C(C(C)(C)C)=C2 (centres undefined)	105
Cc1ccc(-c2[nH]nc3c2C(c2ccccc2OC(=O)N2CCOCC2)C(C#N)=C(N)O3)cc1 (centres undefined)	110
Nc1c(C(=O)Nc2ccc(Cl)cc2)sc2nc3c(c(-c4ccco4)c12)CCCC3	100
COCCCNC(=O)N1CCN(Cc2nc3cccnc3n2-c2ccc(F)cc2)CC1	106
CC(C)(C)c1ccc(C(=O)N2CCCC(C(=O)NN3S(=O)(=O)c4ccccc4S3(=O)=O)C2)cc1 (centres undefined)	108
O=C(c1ccco1)N1CCCC(Nc2ncnc3c2CCC3)C1 (centres undefined)	91
CCN(C(=O)C1C(=O)NC2(C)CC1c1ccccc1O2)c1ccccc1 (centres undefined)	108
CCOCCCNC(=O)c1ccc(-c2cc(Oc3ccc(OC)cc3)ncn2)cc1	103
O=C(Nc1ccccc1Cl)c1ccc(F)c(S(=O)(=O)N2CCN(c3cccc(Cl)c3)CC2)c1	113
Cc1noc(C)c1CN1CCCN(S(C)(=O)=O)CC1	97
Cc1ccc2c(c1)N(C(=O)/C=C/c1ccccc1)C(C)(C)CC2(C)c1ccccc1 (centres undefined)	110
O=C(Nc1ccc2c(c1)OCCO2)N1CCC(n2cnc3ccccc3c2=O)CC1	106
CCOC(=O)C1=C(c2ccccc2)N=C2SCC(=O)N2C1c1ccccc1OC (centres undefined)	109
O=S(=O)(c1ccc2ccccc2c1)N1c2ccccc2-c2ccccc2S1(=O)=O	121
O=C(CSc1nnc2ccc(-c3ccccc3)nn12)NCc1ccc2c(c1)OCO2	101
COc1ccc(C(NC(=O)c2cccnc2)c2cc(Cl)c3cccnc3c2O)cc1OC (centres undefined)	101
O=C(O)Cn1c2ccccc2c2nn3c(nc4ccccc43)nc21	113
COC(=O)C1=C(C(=O)OC)SC2(S1)C(C(=O)OC)=C(C(=O)OC)SC1=C2c2cc(C)c(C)cc2N(C(=O)C(F)(F)F)C1(C)C	106
CCCS(=O)(=O)c1c(S(=O)(=O)CCC)c2ccccn2c1C(=O)c1ccccc1	101
CCc1ccc(-n2c(=S)sc3c(=O)[nH]c(SCC(=O)N4CCCC4)nc32)cc1	108
CN(C)S(=O)(=O)c1ccc2nc(NS(=O)(=O)c3ccc(Br)cc3)sc2c1	101
O=S(=O)(c1ccccc1)c1nc(Cc2ccccc2)oc1NCc1ccccc1	98
COc1cccc(S(=O)(=O)Nc2ccc(C(=O)N3CCCC(C(=O)NC(C)C)C3)cc2)c1 (centres undefined)	112
Cc1c(CC(=O)NCCC2=CCCCC2)c2c(=O)n(C)c(=O)n(C)c2n1C	105
COc1ccc(CNc2nc(SCc3cc(=O)n4cc(Cl)ccc4n3)nc3ccccc23)cc1	107
O=C(C1CCN(c2ncnc3c2oc2ccccc23)CC1)N1CCN(c2ccccc2F)CC1	108
Cc1cc(C)cc(NC(=O)C(Cc2c[nH]c3ccccc23)NC(=O)OCC(C)C)c1 (centres undefined)	124
Cc1ccc(-n2cc(-c3ccccc3)c3c(NCCCN4CCCC4=O)ncnc32)cc1Cl	112
Cn1c(=O)c2nc(SCC(=O)N3CCOCC3)n(C)c2n(C)c1=O	104
N#Cc1cc2[nH]c3ccccc3c2n(-c2ccc([N+](=O)[O-])cc2)c1=O	120
CCSc1nc2ccc(NS(=O)(=O)c3cc(F)cc(F)c3)cc2s1	106
COc1cc(/C=C2\CC(C(C)(C)C)C/C(=C\c3cc(OC)c(OC)c(OC)c3)C2=O)cc(OC)c1OC (centres undefined)	104
CN1C(=O)/C(=C2/Sc3ccc(Cl)cc3N2C2CCCCC2)SC1=S	111
CCCCOc1ccc(-c2nc(C=Nc3ccccc3Br)c(O)o2)cc1	111
N#CC1(C#N)[C@@H]2C=Cc3ccccc3N2[C@@H](C(=O)c2ccccc2)[C@@H]1c1cccc(Cl)c1	133
Cc1nc2sc(C(=O)Nc3ccc4ccccc4c3)c(N)c2c(C)c1Cl	108
CCc1cc(-c2csc(S(=O)(=O)NCC3CCN(Cc4ccc(Cl)cc4)CC3)c2)on1	102
CCCCN1CCN(S(=O)(=O)c2cc(-c3nnc(C(C)C)o3)co2)CC1	100
C=CCOC(=O)C1=C(C)OC(N)=C(C#N)C1c1ccco1 (centres undefined)	107
C=CCSc1nc(N2CCOCC2)c2c(c1C#N)CC(C)(C)OC2	104
CCOC(=O)c1ccc(Cn2c3ccccc3c3nn4cc(-c5cc(C(C)(C)C)cc6c5CCC6(C)C)nc4nc32)o1	150
Cc1ccc(-n2nc(C(=O)N3CCN(c4ccccn4)CC3)c3ncn(C)c(=O)c32)cc1	106

Some of these compounds in order of the GIV Gai3 FP value, rising:
Structure | GIV Gai3 FP
Cc1nc(CN2C(=O)COc3cc(S(=O)(=O)N4CCOCC4)c(Cl)cc32)no1 | 99
CCCS(=O)(=O)c1c(S(=O)(=O)CCC)c2ccccn2c1C(=O)c1ccccc1 | 101
CCOC(=O)C1=C(c2ccccc2)N=C2SCC(=O)N2C1c1ccccc1OC (centres undefined) | 109
O=C1Nc2ccccc2C12OCC(CO)([N+](=O)[O-])CO2 (centres undefined) | 110
O=C(O)Cn1c2ccccc2c2nn3c(nc4ccccc43)nc21 | 113
Cc1cccc(NC(=O)c2c(NC(=O)C(C)C)sc3c2CCC3)c1 | 118
N#CC1(C#N)[C@@H]2C=Cc3ccccc3N2[C@@H](C(=O)c2ccccc2)[C@@H]1c1cccc(Cl)c1 | 133

These rows are one share of the data (hit frequency here may not be typical).
